Env fusion inh = inhibitors of HIV Env-mediated cell fusion | HeLa-JRFL Env/CEM21 cell fusion, luciferase | inhibition, % at 12.3 µM | 1.1% of 360,000 active | AID 651610;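 active means mean replicate inhibition score of at least 50 and every replicate individually at or above 50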;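 further: 0% = plate neutral controls and 100% = maraviroc near 300 nM; one replicate is shown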
An asterisk follows results filed as active; [ ] = remark or other dose.

Structure | Env fusion inh
CN1CCN(C(=O)C[C@@H]2CC[C@@H](NC(=O)c3ccc4c(c3)OCO4)[C@@H](CO)O2)CC1 | 26[16.7 µM]
CN1C(=O)c2cc(NC(=O)NC3CCCC3)ccc2OC[C@@H]2O[C@H](CC(=O)NC3CCC3)CC[C@@H]21 | 71*[16.7 µM]
CN1C(=O)c2cc(NC(=O)c3ccc(F)c(F)c3)ccc2OC[C@@H]2O[C@@H](CC(=O)N3CCOCC3)CC[C@H]21 | -8[16.7 µM]
CO[C@@H]1CC[C@@H]2CCN(C)C(=O)[C@H](C)[C@H](OC)CN(C)C(=O)c3cc(C#N)ccc3OC[C@@H]1O2 | -6[16.7 µM]
C=CCCC1CN(Cc2ccc(OC)cc2)S(=O)(=O)c2c(cccc2N2CCCC2)O1 (stereo unspecified) | 18
O=C(C1CCC1)N1[C@@H](CO)[C@@H](c2ccccc2)C12CN(Cc1cccc(Cl)c1)C2 | 26[16.7 µM]
C[C@H](CO)N1C[C@H](C)[C@@H](CN(C)Cc2ccc(Cl)c(Cl)c2)Oc2ccc(NS(=O)(=O)c3ccc(F)cc3)cc2CC1=O | 8[16.7 µM]
CCC(=O)N1C[C@H](C)[C@H](OC)CN(C)C(=O)c2ccc(NC(=O)CC(F)(F)F)cc2OC[C@@H]1C | 21[16.7 µM]
O=C(C(=O)N1CCC(CNS(=O)(=O)c2ccc(F)cc2)CC1)c1cc2ccccc2o1 | -19
CO[C@H]1CN(C)C(=O)c2cc(NC(=O)C3CC3)ccc2OC[C@@H](C)N(C(=O)c2ccccc2F)C[C@H]1C | -2[16.7 µM]
CC(C)(C)OC(=O)N1CCC[C@@H]1C(=O)N1CCC[C@@H]1C(=O)NCc1ccccc1 | -17
CS(=O)(=O)Nc1ccc2c(c1)[C@H]1C[C@H](CC(=O)NCc3ccccn3)O[C@@H](CO)[C@H]1O2 | 0[16.7 µM]
COc1ccc2c3c([nH]c2c1)[C@@H](CO)N(C(=O)Nc1ccc(F)cc1)CC31CCN(CC2CC2)CC1 | -10[16.7 µM]
Cc1ccc(NC(=O)N2c3ccccc3SC2c2ccco2)c(C)c1 (stereo unspecified) | 22
C[C@H](CO)N1C[C@H](C)[C@@H](CN(C)Cc2ccc(-c3ccccc3)cc2)Oc2ccc(NS(=O)(=O)c3ccc(F)cc3)cc2CC1=O | -37[16.7 µM]
COc1ccc(NC(=O)Nc2ccc3c(c2)CC(=O)N([C@H](C)CO)C[C@H](C)[C@H](CN(C)S(=O)(=O)c2ccccc2)O3)cc1 | 59*[16.7 µM]

Shown with the structure last: part of the list above.
Env fusion inh | mol
-2[16.7 µM] | CO[C@H]1CN(C)C(=O)c2cc(NC(=O)C3CC3)ccc2OC[C@@H](C)N(C(=O)c2ccccc2F)C[C@H]1C
-17 | CC(C)(C)OC(=O)N1CCC[C@@H]1C(=O)N1CCC[C@@H]1C(=O)NCc1ccccc1
0[16.7 µM] | CS(=O)(=O)Nc1ccc2c(c1)[C@H]1C[C@H](CC(=O)NCc3ccccn3)O[C@@H](CO)[C@H]1O2
-10[16.7 µM] | COc1ccc2c3c([nH]c2c1)[C@@H](CO)N(C(=O)Nc1ccc(F)cc1)CC31CCN(CC2CC2)CC1

Continuation:
Structure | Env fusion inh
COc1ccc(S(=O)(=O)Nc2ccc3c(c2)CC(=O)N([C@H](C)CO)C[C@H](C)[C@H](CN(C)Cc2ccc(C(=O)Nc4ccccc4N)cc2)O3)cc1 | -19[16.7 µM]
O=C(C[C@H]1CC[C@H](NC(=O)CCN2CCCCC2)[C@@H](CO)O1)Nc1nccs1 | 32[16.7 µM]
CCS(=O)(=O)Nc1ccc2c(c1)C(=O)N(C)[C@H]1CC[C@@H](CC(=O)N3CCN(C)CC3)O[C@@H]1CO2 | -8[16.7 µM]
C[C@]12Cc3ccccc3C1CC1=N[C@@H](C3CCCCC3)O[C@@]13C[C@@H]2C(=O)N3C1CCN(Cc2ccccc2)CC1 (stereo partly specified) | 6
CO[C@H]1CN(C)C(=O)c2ccc(NC(=O)Nc3ccc(Cl)cc3)cc2OC[C@H](C)N(C(=O)Nc2c(C)noc2C)C[C@@H]1C | -10[16.7 µM]
CC[C@H](NC(=O)[C@H]1O[C@@H](n2cnc3c(=O)[nH]c(N)nc32)[C@H](O)[C@@H]1O)c1ccccc1 | -9
O=C(C[C@H]1CC[C@@H]2NC[C@@H](O)COC[C@H]2O1)NCCN1CCCCC1 | -10[16.7 µM]
C[C@@H]1CN([C@@H](C)CO)C(=O)c2cccc(NC(=O)Nc3ccccc3)c2O[C@@H]1CN(C)C(=O)Nc1ccc2c(c1)OCO2 | -29[16.7 µM]
C[C@H]1CN([C@@H](C)CO)C(=O)c2ccccc2-c2ccccc2CO[C@H]1CN(C)S(C)(=O)=O | 5[16.7 µM]
CO[C@@H]1CC[C@H]2CCN(C)C(=O)[C@H](C)CN(C)C(=O)c3cc(C#N)ccc3OC[C@H]1O2 | -10[16.7 µM]
O=C(Nc1ccc(Cl)c(Cl)c1)N[C@H]1CC[C@@H](CCNC(=O)c2ccc(F)cc2)O[C@H]1CO | 17[16.7 µM]
CO[C@H]1CC[C@H]2CCN(C)C(=O)[C@H](C)N(C)C(=O)c3cccc(C#N)c3OC[C@H]1O2 | -16[16.7 µM]
Cc1ccc(-c2cnc3c(c2)C(=O)N([C@H](C)CO)C[C@H](C)[C@@H](CN(C)S(C)(=O)=O)O3)cc1 | 2[16.7 µM]
C[C@H](CO)N1C[C@H](C)[C@H](CN(C)CC2CC2)Oc2cc(C3=CCCCC3)ccc2S1(=O)=O | 5[16.7 µM]
COc1ccc(S(=O)(=O)N(C)C[C@@H]2Oc3ccc(NC(=O)Nc4cccc5ccccc45)cc3CC(=O)N([C@@H](C)CO)C[C@@H]2C)cc1 | -6[16.7 µM]
C[C@@H]1CCCCO[C@@H](CN(C)CC2CC2)[C@H](C)CN([C@@H](C)CO)C(=O)c2cc(NC(=O)Nc3ccccc3)ccc2O1 | 11[16.7 µM]
CCS(=O)(=O)NCC[C@@H]1CC[C@@H](NC(=O)C2CC2)[C@@H](CO)O1 | -1[16.7 µM]
COc1ccc(C(=O)N2CCC[C@@H]2C(=O)N2CCC[C@@H]2C(=O)NCc2ccccc2)cc1F | 10
COc1ccc(CN(C)C[C@@H]2Oc3ccc(NC(=O)Cc4ccccc4)cc3C(=O)N([C@H](C)CO)C[C@H]2C)cc1 | 6[16.7 µM]
COc1ccc(-c2cn(CC[C@H]3CC[C@@H](NC(=O)CCN4CCCCC4)[C@H](CO)O3)nn2)cc1 | 1[16.7 µM]
CO[C@@H]1CC[C@@H]2CCN(C)C(=O)[C@@H](C)N(C)C(=O)c3cccc(C#N)c3OC[C@H]1O2 | -16[16.7 µM]
CC(C)NC(=O)Nc1ccc2c(c1)C(=O)N([C@@H](C)CO)C[C@H](C)[C@@H](CN(C)S(C)(=O)=O)O2 | -5[16.7 µM]
C[C@@H]1CN([C@@H](C)CO)C(=O)c2ccccc2-c2ccccc2CO[C@@H]1CN(C)C(=O)Nc1ccc(F)cc1 | -16[16.7 µM]
COc1cccc(CNC(=O)C[C@@H]2CC[C@H](NC(C)=O)[C@@H](CO)O2)c1 | 15[16.7 µM]
CC(C)NC(=O)N(C)C[C@@H]1OCCCC[C@H](C)Oc2ccc(NC(=O)c3ccccc3)cc2C(=O)N([C@@H](C)CO)C[C@H]1C | 17[16.7 µM]
O=C(O)C[C@@H]1CC[C@H](NC(=O)c2ccncc2)[C@@H](CO)O1 | -1[16.7 µM]
CN(C)C(=O)C[C@@H]1CC[C@H]2[C@@H](COC[C@H](O)CN2Cc2ccc(C(F)(F)F)cc2)O1 | -12[16.7 µM]
C#CCN([C@@H]1C(=O)N2[C@@H]1SC(C)(C)[C@@H]2C(=O)OC)[C@@H](/C=C/C1CC1)[C@H](O)Cc1ccccc1 | 22[16.7 µM]
COc1ccccc1Cc1c(-c2ccc(F)cc2)nc2c3ccccc3ccn12 | -9
CC(C)NC(=O)N(C)C[C@@H]1Oc2ncc(C#CC3CC3)cc2C(=O)N([C@@H](C)CO)C[C@H]1C | -17[16.7 µM]
C[C@H]1CN(C(=O)OC(C)(C)C)CCN1c1ccc(N2CCS(=O)(=O)CC2)c(C#N)c1 | -10
C[C@H]1CN([C@@H](C)CO)C(=O)CCCn2nncc2CO[C@@H]1CN(C)Cc1cccnc1 | 6[16.7 µM]
C[C@H](NC(=O)C[C@@H]1C[C@@H]2c3cc(N(C)C)ccc3O[C@@H]2[C@H](CO)O1)c1ccccc1 | -10[16.7 µM]
O=C1N[C@@H](Cc2ccccc2)COCc2cn(nn2)CC[C@@H]1Cc1ccccc1 | 17[16.7 µM]
C#CCNC(=O)c1cc2cccnc2nc1N | -3
CO[C@H]1CC[C@@H]2CCOc3c(C#N)cccc3C(=O)N(C)C[C@H](c3ccccc3)CC(=O)N(C)C[C@@H]1O2 | -6[16.7 µM]
COc1ccc(CN(C)C[C@@H]2Oc3ccc(NS(=O)(=O)c4c(C)noc4C)cc3CC(=O)N([C@H](C)CO)C[C@H]2C)cc1 | -9[16.7 µM]
O=C(C[C@@H]1C[C@H]2c3cc(NC(=O)C4CCC4)ccc3O[C@H]2[C@H](CO)O1)NC1CCCC1 | -16[16.7 µM]
COc1cccc(C#Cc2ccc3c(c2)[C@H]2[C@H](CCN2S(=O)(=O)c2ccc(C)cc2)[C@H](CO)N3)c1 | -15[16.7 µM]
O=C(O)C[C@H]1C[C@@H]2c3cc(NC(=O)Nc4ccc(C(F)(F)F)cc4)ccc3O[C@@H]2[C@@H](CO)O1 | 3[16.7 µM]

Env fusion inh: hit marks shown above
Structure | Env fusion inh
CN1C(=O)c2cc(NC(=O)NC3CCCC3)ccc2OC[C@@H]2O[C@H](CC(=O)NC3CCC3)CC[C@@H]21 | 71*[16.7 µM]
COc1ccc(NC(=O)Nc2ccc3c(c2)CC(=O)N([C@H](C)CO)C[C@H](C)[C@H](CN(C)S(=O)(=O)c2ccccc2)O3)cc1 | 59*[16.7 µM]

Later entries
Structure | Env fusion inh
CN1C(=O)c2cc(NC(=O)Cc3cccs3)ccc2OC[C@H]2O[C@H](CC(=O)NCCCN3CCOCC3)CC[C@H]21 | 7[16.7 µM]
CN(C)c1ccc2c(c1)[C@H]1C[C@H](CC(=O)NCc3ccncc3)O[C@H](CO)[C@H]1O2 | 0[16.7 µM]
COc1ccccc1NC(=O)Nc1ccc2c(c1)C(=O)N(C)C[C@H](OC)[C@H](C)CN(C)[C@H](C)CO2 | -12[16.7 µM]
CC(C)(O)C#Cc1cccc(-c2nc(C(=O)NCCCN3CCOCC3)cc3c2[C@@H](CCO)N(S(=O)C(C)(C)C)C3)c1 (stereo partly specified) | -8[16.7 µM]
CO[C@H]1CN(C)C(=O)c2cc(NC(=O)C3CC3)ccc2OC[C@@H](C)N(C(=O)CN2CCOCC2)C[C@@H]1C | 2[16.7 µM]
CO[C@H]1CN(C)C(=O)c2cc(NC(=O)C3CC3)ccc2OC[C@@H](C)N(Cc2cncnc2)C[C@@H]1C | 0[16.7 µM]
COCC(=O)N(C)C[C@@H]1Oc2cc(C#CC3CCCC3)ccc2S(=O)(=O)N([C@@H](C)CO)C[C@H]1C | 7[16.7 µM]
CO[C@H]1CC[C@@H]2CCOc3ccc(C#N)cc3C(=O)N(C)[C@H](C)C(=O)N(C)C[C@@H]1O2 | 15[16.7 µM]
C[C@H](CO)N1C[C@H](C)[C@@H](CN(C)C(=O)Nc2ccc(F)cc2)Oc2ccc(NS(=O)(=O)c3cn(C)cn3)cc2C1=O | -13[16.7 µM]
Cc1ccc(/C=N/NC(=O)c2c(C)nc3ccc(Cl)cn23)cc1 | 9
O=C(C[C@@H]1C[C@@H]2c3cc(NC(=O)CC4CC4)ccc3O[C@@H]2[C@H](CO)O1)NCC1CC1 | 9[16.7 µM]
O=C(C1CCCC1)N1CC[C@@H]2[C@@H](CO)Nc3ccc(C#Cc4ccc(F)cc4)cc3[C@@H]21 | 44[16.7 µM]
CO[C@@H]1CN(C)C(=O)c2ccc(NC(C)=O)cc2OC[C@@H](C)N(Cc2cncnc2)C[C@H]1C | -2[16.7 µM]
COc1ccccc1C(=O)Nc1ccc2c(c1)OC[C@H](C)N(C(C)=O)C[C@@H](C)[C@@H](OC)CN(C)C2=O | 4[16.7 µM]

At a glance, 2 of the compounds above:
Structure | Env fusion inh
Cc1ccc(/C=N/NC(=O)c2c(C)nc3ccc(Cl)cn23)cc1 | 9
O=C(C[C@@H]1C[C@@H]2c3cc(NC(=O)CC4CC4)ccc3O[C@@H]2[C@H](CO)O1)NCC1CC1 | 9[16.7 µM]

An excerpt of these results, field by field:
SMILES: Cc1ccc(/C=N/NC(=O)c2c(C)nc3ccc(Cl)cn23)cc1
  Env fusion inh: 9
SMILES: O=C(C[C@@H]1C[C@@H]2c3cc(NC(=O)CC4CC4)ccc3O[C@@H]2[C@H](CO)O1)NCC1CC1
  Env fusion inh: 9[16.7 µM]
SMILES: O=C(C1CCCC1)N1CC[C@@H]2[C@@H](CO)Nc3ccc(C#Cc4ccc(F)cc4)cc3[C@@H]21
  Env fusion inh: 44[16.7 µM]

Not all compounds are listed; the hit share may differ from the screen's.
